# Sa growth inh – S. aureus growth inhibition at 42 and 30 °C, primary screen, LtaS inhibitor project, RN4220, two temperatures. AID 720641, 2013. 170,000 tested, 0.53% active. OD600, 20 h, 42 °C; hits give low values. relative growth, % (test concentration not listed);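 active means growth at 42 °C up to 50% and 20 or more points under that at 30 °C, or under 10% at both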;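 further: 300 nL library stock went into each well; scaled to the means of positive and negative controls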
# GIV Gai3 FP – inhibitors of GIV peptide binding to Galpha-i3, primary screen, biochemical, fluorescence polarization, FITC-GIV GBA peptide, rat Galphai3. percent of control (FP), % (test concentration not listed). 90 min; hits give low values; scaled: aluminum fluoride 0%, vehicle 100%. 210,000 tested, 0.42% active. Guanine nucleotide-binding protein G(i) subunit alpha-3 (Rattus norvegicus), P08753;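 active means replicate mean at 85% of control or lower, very high polarization wells dropped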;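 further: wells of about 15 µL received 100 nL stock; the first replicate is given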
# Target sequence (P08753 whole entry, looked up): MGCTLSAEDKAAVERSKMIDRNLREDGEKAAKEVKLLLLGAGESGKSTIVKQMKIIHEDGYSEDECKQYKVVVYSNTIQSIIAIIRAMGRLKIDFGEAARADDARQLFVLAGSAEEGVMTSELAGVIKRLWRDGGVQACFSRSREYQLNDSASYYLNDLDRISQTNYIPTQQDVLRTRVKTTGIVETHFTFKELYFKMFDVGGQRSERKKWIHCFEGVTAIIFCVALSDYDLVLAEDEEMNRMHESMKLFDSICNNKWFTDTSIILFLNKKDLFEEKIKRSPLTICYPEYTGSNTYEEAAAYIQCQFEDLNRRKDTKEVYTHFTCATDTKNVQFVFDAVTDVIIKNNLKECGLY
# HCMV NEC inh – inhibitors of HCMV UL50-UL53 interaction, biochemical, HTRF | 190,000 tested, 0.15% active | AID 1918969, 2023 | normalized percent inhibition | HCMV UL50-UL53 nuclear egress complex (human cytomegalovirus) | inhibition, % (concentration not given with the values);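 active means both replicates at 50% or more, plus weaker picks with an unusually low signal ratio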;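 further: stock transfer was 100 nL into about 20 µL; 0% = negative control wells and 100% = wells with untagged competitor protein; inactives centre near -12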
# Sa growth inh second temp – further read-out of Sa growth inh, marked with its call; relative growth, %; measured here: growth at 30 °C;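 optical density after 20 h as mean of two plates; 100% = untreated growth and lower means inhibition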
# * marks the source's active call; other numbers are inactive results; nt = not tested or not shown; & = joins results of further samples. Compounds as they come; about 0.8% have a hit in one of these screens.
SMILES,Sa growth inh,Sa growth inh second temp,GIV Gai3 FP,HCMV NEC inh
COc1cc(C2Nc3ccc(C(=O)c4ccccc4)cc3NC3=C2C(=O)CC(C)(C)C3)cc(OC)c1OC (configuration not stated),nt,nt,107,-31
OCCNC(=S)NC1CC2C=CC1C2 (configuration not stated),95,89,103,-11
Fc1cccc(-c2nnn3c2nc(NCc2ccc4c(c2)OCO4)c2ccccc23)c1,92,104,110,-7
Cc1cc(S(=O)(=O)/N=C/N(C)C)c(C)cc1Cl,93,88,108,-33
Cc1cc2n(n1)CCCN2C(=O)NCc1ccccc1,nt,nt,101,-5
Cc1cc(=O)n2nc(N(C)CC(=O)O)sc2n1,85,73,93,-14
CN(C)C(=O)CSc1nc2ccc(C(=O)c3ccccc3)cc2[nH]1,98,97,97,-2
CCC(Nc1ccccc1)C(=O)N/N=C/c1ccccc1O (configuration not stated),81,77,109,-20
Cn1c(N)c(NC2CC(C)(C)NC(C)(C)C2)c(=O)[nH]c1=O,125,83,nt,-22
O=C1CCN(c2cccc(F)n2)CC1,nt,nt,101,-13
CC(Oc1ccccc1)C(=O)Nc1c[nH]c(=O)[nH]c1=O (configuration not stated),104,69,104,-11
Cn1c(=S)oc2ccccc21,100,99,103,7
O=C(Nc1ccc(F)cc1)c1ncn(-c2ccccc2)n1,116,96,103,-10
Cc1cc(C)nc(N/N=C/C2=C(O)CC(C)(C)CC2=O)n1,93,87,nt,-6
CN(C)S(=O)(=O)N(Cc1ccc(Br)cc1)c1ccccc1,126,112,113,7
CC1=CC(c2ccoc2)c2c(oc(N)c(C#N)c2=O)S1 (configuration not stated),85,110,nt,-1
Cc1ccc(NC(=O)Cc2nc(COC(=O)C3CC(=O)N(Cc4ccco4)C3)cs2)cc1 (configuration not stated),84,98,nt,-3
CCCCSCCCNC(=O)c1cn(CC)c2ccc(S(=O)(=O)N3CCOCC3)cc2c1=O,99,90,98,-26
c1ccc2[nH]c(CCn3c4ccccc4c4ccccc43)nc2c1,102,97,nt,6
CCCCNc1ccc(C(F)(F)F)cc1N,77,94,nt,-21
COC(=O)C(C)Oc1ccc(N2C(=O)c3ccccc3C2=O)cc1 (configuration not stated),100,82,102,-87
CCOC(=O)C(C)Oc1ccc2c(C)cc(=O)oc2c1 (configuration not stated),98,90,107,-4
Cc1nn(CCC(=O)Nc2cccc(C#N)c2)c(C)c1S(=O)(=O)N1CCCCC1,83,85,101,nt
Cc1sc2ncn3nc(-c4ccc5c(c4)OCO5)nc3c2c1C,94,80,101,16
CC(C)Oc1cccc(C(=O)N2CCCCC2)c1,81,102,103,-28

# An excerpt from above in order of molar mass, high to low.
SMILES,Sa growth inh,Sa growth inh second temp,GIV Gai3 FP,HCMV NEC inh
Cc1nn(CCC(=O)Nc2cccc(C#N)c2)c(C)c1S(=O)(=O)N1CCCCC1,83,85,101,nt
CN(C)S(=O)(=O)N(Cc1ccc(Br)cc1)c1ccccc1,126,112,113,7
CN(C)C(=O)CSc1nc2ccc(C(=O)c3ccccc3)cc2[nH]1,98,97,97,-2
COC(=O)C(C)Oc1ccc(N2C(=O)c3ccccc3C2=O)cc1 (configuration not stated),100,82,102,-87
Cc1sc2ncn3nc(-c4ccc5c(c4)OCO5)nc3c2c1C,94,80,101,16
c1ccc2[nH]c(CCn3c4ccccc4c4ccccc43)nc2c1,102,97,nt,6
CCC(Nc1ccccc1)C(=O)N/N=C/c1ccccc1O (configuration not stated),81,77,109,-20
Cc1cc(C)nc(N/N=C/C2=C(O)CC(C)(C)CC2=O)n1,93,87,nt,-6
O=C(Nc1ccc(F)cc1)c1ncn(-c2ccccc2)n1,116,96,103,-10
CCOC(=O)C(C)Oc1ccc2c(C)cc(=O)oc2c1 (configuration not stated),98,90,107,-4
CC(Oc1ccccc1)C(=O)Nc1c[nH]c(=O)[nH]c1=O (configuration not stated),104,69,104,-11
Cc1cc2n(n1)CCCN2C(=O)NCc1ccccc1,nt,nt,101,-5
Cc1cc(=O)n2nc(N(C)CC(=O)O)sc2n1,85,73,93,-14
CC(C)Oc1cccc(C(=O)N2CCCCC2)c1,81,102,103,-28
CCCCNc1ccc(C(F)(F)F)cc1N,77,94,nt,-21
OCCNC(=S)NC1CC2C=CC1C2 (configuration not stated),95,89,103,-11
O=C1CCN(c2cccc(F)n2)CC1,nt,nt,101,-13
Cn1c(=S)oc2ccccc21,100,99,103,7

# Other results follow:
SMILES,Sa growth inh,Sa growth inh second temp,GIV Gai3 FP,HCMV NEC inh
COc1ccc(-c2nc3scc(CCNS(=O)(=O)c4cccc(C(C)=O)c4)n3n2)cc1,98,84,99,nt
Cc1ccc(S(=O)(=O)Nc2c(C)n(C)n(-c3ccccc3)c2=O)cc1,94,91,105,-12
COC(=O)C1=C(c2ccccc2)c2ccccc2S(=O)(=O)N1CC(=O)Nc1ccc2c(c1)OCO2,nt,nt,104,-16
Cc1[nH]c2ccccc2c(=O)c1CN1CCCC1,85,88,102,0
Cc1ccsc1C(=O)OCC1CCCO1 (configuration not stated),93,95,nt,5
Cc1ccc(NC(=O)c2ccc3c(=O)n4nc(Nc5ccccc5C)sc4nc3c2)cc1C,116,91,109,nt
COc1cccc(C(=O)CN2C3=NCCCN3c3ccccc32)c1,102,94,105,nt
O=C(Nc1ccccc1)Nc1cc(-c2ccccc2)[nH]n1,100,96,104,10
O=S(=O)(NCCc1ccccc1)c1ccc(F)cc1,98,83,100,-32
O=C1c2oc3ccc(F)cc3c(=O)c2C(c2cccc([N+](=O)[O-])c2)N1CCCN1CCOCC1 (configuration not stated),103,87,104,-83
O=C(O)c1cnc(N2CCCC2)nc1,110,98,107,nt
Cc1ccc(-c2onc(C)c2C)cc1S(=O)(=O)Nc1cccnc1,nt,nt,108,-12
CCc1ccc(NC(=O)CN(c2ccc(OC)cc2)S(=O)(=O)c2c(C)[nH]c(=O)[nH]c2=O)cc1,108,86,103,-2
CCOC(=O)c1c(NC(=O)c2cc(-c3ccc(OC)c(OC)c3)on2)sc(C)c1C,102,88,102,-17
O=C(NCCc1ccccc1)c1nnc(C(Nc2ccccc2)c2ccc(Cl)cc2)o1 (configuration not stated),103,76,95,-45
Cc1ccc(NC(=O)CSC2=NC(N)=C(C#N)C3(CCCCC3)C2C(N)=O)cc1 (configuration not stated),98,87,nt,-10
CCn1c(SC)nnc1C1CCCN(C(=O)Cc2cccnc2)C1 (configuration not stated),93,101,100,3
O=C(c1ccc(N2C(=O)c3ccccc3C2=O)cc1)N1CCN(S(=O)(=O)c2ccccc2F)CC1,92,89,nt,-75
Cc1ccc(SCC(=O)c2ccc[nH]2)cc1C,94,103,nt,-5
COCCCNC(=O)N1Cc2c(sc3c2CCCC3)-n2cccc2C1c1ccc(N(C)C)cc1 (configuration not stated),nt,nt,108,-31
COc1ccccc1-c1nc2nc(C)cc(=O)n2[nH]1,113,88,103,-2
CC(C)(C)c1cc(N)ncn1,95,92,104,-14
Cc1cc(SC(=O)N/C=C/c2ccco2)c(C)cc1Cl,80,69,113,-15
COc1ccc(Br)cc1-c1nc(CSc2nc(-c3ccncc3)cc(=O)[nH]2)c(C)o1,nt,nt,107,-40
COc1ccc(-c2nc(=O)c3ccccc3o2)cc1OC,99,94,110,37
# Next section
SMILES,Sa growth inh,Sa growth inh second temp,GIV Gai3 FP,HCMV NEC inh
CCN(CC)CCCNC(=O)C1=C(C)C(=O)OC12CCN(C(C)=O)CC2,nt,nt,105,-19
COc1ccc(C2C(C#N)=C(N)Oc3n[nH]c(C)c32)cc1COc1cccc(Cl)c1 (configuration not stated),nt,nt,100,-22
Cc1ccc(NC(=O)CSc2ccnc(=O)[nH]2)cc1,105,99,103,4
CCS(=O)(=O)N1CCN(Cc2nc3sc4c(c3c(=O)[nH]2)CCC(C(C)(C)C)C4)CC1 (configuration not stated),103,113,105,5
N#CCCN(C(=O)c1cccs1)c1ccccc1F,105,99,nt,18
O=C(CCC1CCCC1)N1CCN(C2CCCCC2)CC1,81,92,102,-50
CCN(CC)c1ccc(/C=N/N(CCC#N)C2=NS(=O)(=O)c3ccccc32)cc1,93,91,160,-26
CC(=O)Nc1cc(NC(C)=O)cc(C(=O)OCC(=O)N2CC(C)OC(C)C2)c1 (configuration not stated),78,87,nt,-18
O=C(Oc1nnc(SCCS(=O)(=O)c2ccc(F)cc2)n1C1CC1)c1cccs1,86,88,100,-23
O=c1[nH]c(=S)[nH]c(O)c1C=Nc1cc(C(F)(F)F)cc(C(F)(F)F)c1,84,87,102,-29
Cc1ccc(C(O)c2ccccc2)s1 (configuration not stated),79,83,101,nt
NNC(=O)/C=C/c1ccc(-c2ccc(F)cc2)o1,107,96,nt,-28
O=C(CSc1cn(CC(=O)N2CCCC2)c2ccccc12)Nc1ccccc1,93,94,105,nt
CC1CCCCC1NS(=O)(=O)c1ccc(S(=O)(=O)N2CCN(CCC#N)CC2)cc1 (configuration not stated),96,87,101,-24
CCn1c2ccccc2c2cc(C=Nc3ccc(OC)cc3)ccc21,134,103,nt,-4
c1cc(N2CCOCC2)nnc1N1CCOCC1,94,80,99,-45
COc1ccc2c(c1)c1c(c(=O)n(-c3cccc(C)c3)c(=O)n1CC(=O)NCCC1=CCCCC1)n2C,94,89,101,-12
CC(CCN1CCN(C)CC1)c1ccccc1 (configuration not stated),114,79,103,-20
C/C(=N\NC(=O)c1ccc(Br)o1)c1ccc(N)cc1,92,116,98,-6
O=C(COc1ccc(Cl)cc1)Oc1ccccc1,96,74,nt,-28
COC(=O)c1cc(N)c(Cl)s1,87,81,115,nt
Cc1ccc(Nc2nc(-c3nnn(-c4ccccc4)c3C)ns2)cc1,nt,nt,105,-27
COc1ccc(NC(=O)CSc2nc(-c3cccs3)cc(C(F)(F)F)n2)cc1OC,115,97,99,nt
CCOc1ccc2c(c1)c(=O)c(C(=O)c1ccc3c(c1)OCO3)cn2Cc1ccc(F)cc1,83,93,102,-43
Oc1ccccc1-c1nc(N2CCCC2)c2ccccc2n1,114,91,96,31
# Carrying on:
SMILES,Sa growth inh,Sa growth inh second temp,GIV Gai3 FP,HCMV NEC inh
CCOc1ccccc1C1CC(=O)Nc2c1c(C)nn2-c1nc(C)cc(C)n1 (configuration not stated),nt,nt,103,6
CC(C)(C)C(=O)OC[C@H]1O[C@@H](n2cnc3c(N)ncnc32)C[C@@H]1OC(=O)C(C)(C)C,82,81,103,-22
COC(=O)COc1ccc(/C=C2\C(=O)NC(=O)N(c3ccc(F)cc3)C2=O)cc1OC,nt,nt,108,-18
CCOC(=O)c1c(C)n(-c2ccccc2)c2ccc(OC(=O)c3ccccc3NC(=O)CC)cc12,90,84,101,nt
CCN(CC)S(=O)(=O)c1ncn[nH]1,103,82,nt,-1
Cc1ccc(NC(=O)c2ccc(CN3CC(=O)N4CCCCC4C3=O)cc2)cc1 (configuration not stated),142,98,112,nt
N#Cc1ccc(CC(C#N)c2ccccc2)cc1 (configuration not stated),85,95,nt,-1
Cc1cc2oc(=O)cc(CN3CCN(C(=O)C4CCCO4)CC3)c2cc1Cl (configuration not stated),98,92,nt,-19
N#Cc1c(-n2cccc2C#N)sc2c1CCCC2,98,116,106&101,13&-24
O=C(Cc1ccc(Cl)c(Cl)c1)N1CCC2(CC1)Nc1ccccc1S(=O)(=O)N2,100,91,100,-16
O=C(NCc1cn2cc(Cl)ccc2n1)c1ccccc1,102,92,nt,-8
COc1ccc2c(c1)CCc1c(C(=O)NC(C)C)noc1-2,nt,nt,104,-35
CCOC(=O)C1CCN(c2nc3ccccc3o2)CC1,107,93,99,-17
COc1ccc(NC(=O)Cn2nc(-c3ccccc3)c3cc(Cl)ccc32)cc1,nt,nt,100,1
CN(C)c1ccc(-n2cccc2)cc1,93,86,nt,-10
O=C(c1cnc2ccccc2c1Nc1cccc(F)c1)N1CCOCC1,nt,nt,97,-23
CS(=O)(=O)N1CCN(CC(O)Cn2c3ccccc3c3ccccc32)CC1 (configuration not stated),97,86,101,-8
CC1=CCC2COC(c3ccccn3)C1C2 (configuration not stated),110,90,103,-17
O=C(/C=C/c1cn(-c2ccccc2)nc1-c1cccnc1)N1CCCC1,141,75,nt,-43
O=c1c(Cl)c(NC2CC2)cnn1-c1ccccc1,90,72,100,-17
O=C(Nc1ccc(Cl)c2c1C(=O)c1ccccc1C2=O)c1ccc([N+](=O)[O-])cc1Cl,nt,nt,97,-4
O=C(Nc1ccccc1)C(=S)N1CCCC1,112,96,108,-19
Cc1cc(C)c(C#N)c(OCc2ccccc2Cl)n1,110,94,104,1
Cc1c(NC(=O)c2ccc(Br)o2)cccc1-c1nc2cccnc2s1,96,79,104,-4

# Assay outcomes deposited in PubChem by ICCB-Longwood Screening Facility, Harvard Medical School.
